Compound activity: PubChem BioAssay, Fisher Drug Discovery Resource Center
NPYLR7 ag – agonists of mosquito NPYLR7 receptor, primary screen, cell-based, Aedes aegypti, calcium fluorescence, mosquito biting behavior; Aedes aegypti neuropeptide Y-like receptor 7 (NPYLR7); hit rate 0.15% among 270,000; HEK293T NPYLR7/Galpha15, GCaMP6s calcium fluorescence; activation, % at 10 µM; in the data active = activation above about 40%;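 also: 0% = vehicle and 100% = reference agonist at the receptor; some compounds past the cut are filed as inactive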
NPYLR7 ag max-min – also measured in NPYLR7 ag; calls as there; activation, %; measured here: Max-Min RFU normalised activation; some inactives read as strong as hits;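 span of the calcium signal over five minutes; 0% = vehicle and 100% = native peptide agonist; compound fluorescence can raise it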
Starred values were filed as active, the others as inactive; & = joins results of further samples. An excerpt. The share of hits here may be higher or lower than overall.

Second line of a record: NPYLR7 ag | NPYLR7 ag max-min
Cc1ccsc1CN(C)C(=O)c1ccc(OCC(N)=O)cc1
  11 | 9
CC(C)N1CCC1(C)C(=O)Nc1ccc(-n2cccc2)cc1 (centres undefined)
  1 | -2
O=C(CCc1ccc2c(c1)OCO2)NCc1cccnc1-n1ccnc1
  2 | 3
CN(Cc1nc2ccccc2c(=O)[nH]1)C(=O)c1cn[nH]c1-c1ccc(Cl)cc1
  1 | -1
CCCCC1CCC(c2noc(-c3ccc([N+](=O)[O-])cc3)n2)CC1 (centres undefined)
  -1 | -7
Cc1nc2nc(C(F)(F)F)nn2c(C)c1CCC(=O)NCCCN1CCC(C)CC1
  1 | 52
O=C(NCC1CC=CCC1)c1cncc(C(=O)NCC2CC=CCC2)c1 (centres undefined)
  5 | 3
CC(=O)Oc1ccc(CSc2nc3cc(S(=O)(=O)N4CCCC(C)C4)ccc3n2CC2CCCO2)cc1 (centres undefined)
  4 | 2
C=CCSc1nnc2c3sc4nc(N5CCOCC5)c5c(c4c3ncn12)CC(C)(C)OC5
  1 | 0
Cc1nccnc1N1CCC(Cn2cc(CN3CCNC(=O)C3)nn2)CC1
  0 | 0
COc1ccc(CNC(=O)N2CCCC2C2CCCC2)cn1 (centres undefined)
  4&-3 | 3&-3
Cc1cc(C2CCC2)nc(N(C)Cc2nccn2C)n1
  0 | -6
Fc1ccc(Oc2cc(C(F)(F)F)nc(SCc3ccc(F)c(F)c3)n2)cc1
  1 | 2
CCCN(Cc1cc(NC(=O)CC)ccc1N(C)C)C(=O)COC
  19 | 25
CC(C)CCSc1nc(N2CCCC2)c2c(c1C#N)CC(C)(C)OC2
  6 | 3

Next section:
Second line of a record: NPYLR7 ag | NPYLR7 ag max-min
CCOc1ccccc1NC(=O)N1CCC2(CC1)C(=O)N(CC(=O)NC(C)c1ccccc1)CN2c1ccccc1 (centres undefined)
  17 | 18
CC(C)CC(NC(=O)C1(C(F)(F)F)CC1)c1nnc2n1CCNCC2 (centres undefined)
  -1 | 6
Cc1cccc(-c2cc(N)n(-c3ccc(C(=O)NCc4ccncc4)cc3)n2)c1
  -10 | -16
O=C(O)CCc1ccc(-c2ccc(F)cc2)n1NC(=O)c1ccc(O)cc1
  1 | -2
CCn1c(C2CCN(C(=O)c3cccc4cnccc34)CC2)nn(C)c1=O
  7 | 4
c1cc(-c2ccc(CN3CCNCC3)cc2)n2nccc2c1
  0 | -6
CC1C(=O)N(C)CCN1Cc1cccc(OCc2ccccn2)c1 (centres undefined)
  12 | 10
O=C(C1=COCCO1)N(Cc1ccccn1)c1nc2c(Cl)cccc2s1
  3 | 0
CCOc1nc(Cl)c(C#N)c(-c2ccccc2)c1C#N
  6 | 6
COc1c(C)cnc(CN(C)C(=O)Nc2cc3c(cc2Cl)OCCCO3)c1C
  6 | 1
CC1=C([N+](=O)[O-])C(c2ccccc2Cl)NC(=O)N1C (centres undefined)
  -2 | -4
COC(=O)c1sccc1S(=O)(=O)N1CCCC2(CC1)CN(C)C(=O)O2 (centres undefined)
  -4 | -6
OC[C@H]1O[C@@H](n2cnc3c(N[C@H]4CCC[C@@H]4O)ncnc32)[C@@H](O)C1O (some centres undefined)
  14 | 8
CC(C)CNC(=O)C1(C)CCCN1C(=O)c1ccc2c(c1)CCO2 (centres undefined)
  -2 | -3
COC(=O)c1ccc(N2C(=O)CSC2c2ccc(OC)cc2)cc1 (centres undefined)
  -3 | -7

The results go on.
Second line of a record: NPYLR7 ag | NPYLR7 ag max-min
CN(C)c1ccc(CNC(=O)Nc2ccc(C3=NNC(=O)CC3)cc2)cn1
  5 | 3
CCN(CC)C(=O)Cn1cc(C(=O)N2CCN(c3ccc(Cl)cn3)CC2)nn1
  -8 | -16
COc1ccc(CN(CCc2c[nH]c3ccccc23)C(=O)CN(C2CC2)S(=O)(=O)c2cc(Cl)ccc2Cl)cc1OC
  2 | 6
COc1ccc(Cn2c(C(C)C)nc3oc4cc(OC)ccc4c(=O)c3c2=O)cc1
  6 | 3
COCCOC1CCN(Cc2cn(C)nc2-c2cccc(Cl)c2)CC1
  -1 | -2
CCOC(=O)c1cc(-c2cccc(OC)c2)n(-c2ccc(C(=O)Oc3ccc([N+](=O)[O-])cc3)cc2)n1
  5 | 0
CC(=O)Cn1c(=O)c2c(nc3n(-c4cc(C)ccc4C)c(C)cn23)n(C)c1=O
  0 | 4
CNC(=O)CCN(C)C1CCN(c2ccc(F)c(F)c2)CC1
  9 | 8
COc1ccc(C(=O)N2CCC3(CC2)C(=O)N(CC(=O)Nc2cccc(Cl)c2)CN3c2ccccc2)c(OC)c1
  22 | 24
Cc1cc(C(=O)NS(=O)(=O)Cc2ccon2)c(C)o1
  1 | 1
CCC(C)C(=O)OCc1cccc2cn[nH]c12 (centres undefined)
  11 | 6
CCN(CCc1nc2ccc(C)cc2[nH]1)C(=O)c1cnc(C(C)C)nc1C
  4 | 19
O=C1CC(N(C(=O)C2CCCC(C(F)(F)F)C2)C2CC2)C(=O)N1 (centres undefined)
  3 | 0
CCOC(=O)c1c(NC(=O)c2ccc(F)c(F)c2)sc2c1CCC(C)C2 (centres undefined)
  -5 | -11
Oc1c2cccnc2cn1-c1ccc2[nH]ncc2c1
  -5 | -8

An excerpt from above in order of length of the SMILES, low to high:
Second line of a record: NPYLR7 ag | NPYLR7 ag max-min
O=C1CC(N(C(=O)C2CCCC(C(F)(F)F)C2)C2CC2)C(=O)N1 (centres undefined)
  3 | 0
CC(=O)Cn1c(=O)c2c(nc3n(-c4cc(C)ccc4C)c(C)cn23)n(C)c1=O
  0 | 4
COc1ccc(CN(CCc2c[nH]c3ccccc23)C(=O)CN(C2CC2)S(=O)(=O)c2cc(Cl)ccc2Cl)cc1OC
  2 | 6

The results go on:
Second line of a record: NPYLR7 ag | NPYLR7 ag max-min
O=c1[nH]nc(CCc2nc3ccccc3[nH]2)n1-c1ccc2c(c1)OCO2
  3 | 3
COc1ccc(CN2CC(OCc3cccnc3)CN(C(=O)c3ccc(C(C)=O)cc3)CC2=O)cc1 (centres undefined)
  7 | -4
CC(NC(=O)CC1CCCc2ccccc21)C(=O)N1CCOCC1 (centres undefined)
  -2&-1 | -3&-3
Cc1cc(C)cc(-n2nc(C(=O)NCCc3ccccn3)c(=O)n(Cc3cccc(Cl)c3)c2=O)c1
  3 | 7
CO/N=C(/C(=O)N1CCc2ccccc2C1)c1csc(NC=O)n1
  2 | -2
CC(C)CC1COCCN1c1ncnc2cccc(F)c12 (centres undefined)
  -2 | -2
COC(=O)C1=C(O)/C(=C\c2ccc(OC)c(OC)c2OC)SC1=Nc1ccc(Cl)cc1
  -22 | -17
CCOc1ccc(-c2ccc(=O)n(CCNC(=O)c3ccccc3C)n2)cc1
  5 | 3
CCC(=O)Nc1cccc(OCC(=O)N2CCOCC2CC(C)C)c1 (centres undefined)
  7 | 6
Cc1ccc(-n2ncc3c(-n4nc(C)cc4NC(=O)COc4ccccc4C)ncnc32)c(C)c1
  16 | 16
O=c1nc(SCc2ccccc2)c2c([nH]1)CCCC2
  -1 | -5
CC(=O)c1cccc(OCc2cc(C(=O)N3CC=CC3CO)n[nH]2)c1 (centres undefined)
  -1 | -7
CC[C@H]1CN(Cc2c(C)nn(C)c2Cl)CC[C@@]1(C)O
  12 | 6
Cn1c(C2COc3ccccc3O2)n[nH]c1=S (centres undefined)
  7 | 3
CCOc1nn(CC)cc1C(=O)Nc1ccon1
  -13 | -18

As a working copy, part of the list above:
Second line of a record: NPYLR7 ag | NPYLR7 ag max-min
Cc1cc(C(=O)NS(=O)(=O)Cc2ccon2)c(C)o1
  1 | 1
CCC(C)C(=O)OCc1cccc2cn[nH]c12 (centres undefined)
  11 | 6
CCN(CCc1nc2ccc(C)cc2[nH]1)C(=O)c1cnc(C(C)C)nc1C
  4 | 19
O=C1CC(N(C(=O)C2CCCC(C(F)(F)F)C2)C2CC2)C(=O)N1 (centres undefined)
  3 | 0
CCOC(=O)c1c(NC(=O)c2ccc(F)c(F)c2)sc2c1CCC(C)C2 (centres undefined)
  -5 | -11
Oc1c2cccnc2cn1-c1ccc2[nH]ncc2c1
  -5 | -8
O=c1[nH]nc(CCc2nc3ccccc3[nH]2)n1-c1ccc2c(c1)OCO2
  3 | 3
COc1ccc(CN2CC(OCc3cccnc3)CN(C(=O)c3ccc(C(C)=O)cc3)CC2=O)cc1 (centres undefined)
  7 | -4
CC(NC(=O)CC1CCCc2ccccc21)C(=O)N1CCOCC1 (centres undefined)
  -2&-1 | -3&-3
Cc1cc(C)cc(-n2nc(C(=O)NCCc3ccccn3)c(=O)n(Cc3cccc(Cl)c3)c2=O)c1
  3 | 7
CO/N=C(/C(=O)N1CCc2ccccc2C1)c1csc(NC=O)n1
  2 | -2
CC(C)CC1COCCN1c1ncnc2cccc(F)c12 (centres undefined)
  -2 | -2
COC(=O)C1=C(O)/C(=C\c2ccc(OC)c(OC)c2OC)SC1=Nc1ccc(Cl)cc1
  -22 | -17
CCOc1ccc(-c2ccc(=O)n(CCNC(=O)c3ccccc3C)n2)cc1
  5 | 3
CCC(=O)Nc1cccc(OCC(=O)N2CCOCC2CC(C)C)c1 (centres undefined)
  7 | 6
Cc1ccc(-n2ncc3c(-n4nc(C)cc4NC(=O)COc4ccccc4C)ncnc32)c(C)c1
  16 | 16
O=c1nc(SCc2ccccc2)c2c([nH]1)CCCC2
  -1 | -5
CC(=O)c1cccc(OCc2cc(C(=O)N3CC=CC3CO)n[nH]2)c1 (centres undefined)
  -1 | -7
CC[C@H]1CN(Cc2c(C)nn(C)c2Cl)CC[C@@]1(C)O
  12 | 6
Cn1c(C2COc3ccccc3O2)n[nH]c1=S (centres undefined)
  7 | 3

The results go on:
Second line of a record: NPYLR7 ag | NPYLR7 ag max-min
COc1ccc(C(=O)N2CCOC(c3ccc(Cl)cc3)C2)cc1O (centres undefined)
  5 | -3
O=C(NCCc1ccccc1)c1cc(Br)c[nH]1
  9 | 4
O=C(Nc1cccc2ccccc12)O[C@@H]1CO[C@H]2[C@@H]1OC[C@@H]2NCc1c[nH]c2ccccc12
  -7 | -12
Cc1nc(-c2cccc(Br)c2)ccc1C(=O)N(CC(N)=O)C(C)C
  0 | 34
Oc1c(C(c2ccc(F)cc2)N2CCOCC2)ccc2cccnc12 (centres undefined)
  4 | 3
O=C(NC1CCN(c2ccccc2C(=O)NCc2ccc3c(c2)OCO3)CC1)c1cccc(Br)c1
  3 | -1
CCn1c(C)c(C(=O)CN(Cc2ccco2)C(=O)c2ccc(OC)cc2OC)c(C)c1C(=O)OC
  -12 | -1
CCOc1ccc(OCCOCCOc2ccccc2)cc1
  -7 | 17
CCC(Cn1ccnc1)NC1CCN(c2ccc3c(c2)OCO3)CC1 (centres undefined)
  7 | 6
Cc1ccc(C(=O)N2CCN(S(=O)(=O)c3c(C)noc3C)CC2)cc1C
  -8 | -9
CCCN(CC(=O)Nc1c(-c2ccccc2)c(C)nn1-c1ccc(OC)cc1)C(=O)Nc1ccc(SC)cc1
  -1 | 5
CCCCCCCCS(=O)(=O)N1CCN(C(=O)CN2CCc3sccc3C2c2cccc(F)c2)CC1 (centres undefined)
  9 | 1
COc1ccc(Nc2cc(C)nc(-n3nc(C)cc3C)n2)cc1OC
  3 | 4
O=C(Cc1csc(-c2ccsc2)n1)NC1CCCCCC1
  12 | 7
CCCCc1ccc(C(=O)N(CC(=O)N(CCc2c[nH]c3ccccc23)Cc2ccc(OC)c(OC)c2)C(C)C)cc1
  -9 | -7

Other compounds follow:
Second line of a record: NPYLR7 ag | NPYLR7 ag max-min
CC(=O)Nc1ccc(-c2ccccc2CO)c2cccnc12
  9 | 7
Cc1csc(=Nc2cc(S(=O)(=O)N3CCOCC3)ccc2Cl)n1C1CC1
  1 | 8
c1ccc(CCCC2CN(Cc3nccs3)CCO2)cc1 (centres undefined)
  3 | -1
Cc1ccc(C(=O)Nc2ccc(N3CCN(C(=O)c4c(C)noc4C)CC3)nc2)cc1
  3 | -2
Cc1nc(C2CCCN(C(=O)c3ccc(S(=O)C(C)C)cc3)C2)n[nH]1 (centres undefined)
  3 | 2
O=S(=O)(c1ccc2ccccc2c1)N1CCN(Cc2ccccn2)CC1
  1 | 4
CCCC(C)(C)C(=O)N1CCC1(C)C(=O)NS(=O)(=O)c1ccccc1Cl (centres undefined)
  -1 | -2
CCN(C1CCS(=O)(=O)C1)S(=O)(=O)c1cc(C)ccc1C (centres undefined)
  0 | 41
N#Cc1cccc(S(=O)(=O)CCN2CCOC2=O)c1
  1 | -1
Cc1ccsc1S(=O)(=O)N1CC[C@@](C)(O)[C@@H](CC(C)C)C1
  -1 | -1
N=C(N)c1ccc(Cl)cc1
  -2 | -10
COC(=O)c1cccc(C)c1NS(=O)(=O)c1ncn(C)c1Cl
  0 | -4
Cc1ccc(C(=O)Nc2ccc(N3CCN(C(=O)c4cc(C)nn4C(C)(C)C)CC3)nc2)cc1
  2 | 0
Cc1cc(=O)n(CC(=O)Nc2ccnn2C(C)C(C)C)c2ccccc12 (centres undefined)
  -2 | -7
CN1CCC(N(C)C(=O)C2CCCCC2)CC1
  -3 | -10
COC(=O)c1ccn(CC(=O)Nc2cc(C)nn2C2CCCCC2)n1
  1 | 2
CCNC(=O)C1(C)CCCN1C(=O)c1ccccc1C(F)(F)F (centres undefined)
  6 | 1
